# PINK1 modulator: modulators of PINK1 expression; PINK1 immunofluorescence, high-content cytometry, 24 h; Potency, µM (doses to about 76.6 µM), without a hit: top-dose activation (PINK1 increase), actives largely listed as activators; 0.2% of 410,000 active; active = well fitted activation curve with a large enough effect; inconclusive = small, poorly fitted or top-dose-only effect; inactive = flat fitted curve, though single readings scatter; cell line not stated here;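 note: potency is the fitted concentration of half-maximal effect; % of control where 0% means no effect; nearly all actives have a fitted effect of over 65% in size; a mitochondrial uncoupler was the plate control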
#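 Cells are seeded, rested 12 hours, then given compound at five concentrations or DMSO for 24 hours. After fixation, blocking and antibody staining, PINK1 amount and mitochondrial localization are scored; CCCP serves as control.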
# D2 ag: agonists of human D2 dopamine receptor (beta-arrestin) | DiscoveRx PathHunter D2 beta-arrestin, luminescence, 90 min; 100% = 57 uM dopamine signal | 0.084% of 360,000 active | activation, % (no concentration beside the values) | P14416 | AID 624465; in the data active = activation above about 40%; inconclusive = about 15% to 40%; inactive = below about 15%; note: compound concentration not given in the record; the text of the record calls up to 30% inactive
# Target sequence (P14416 whole entry, looked up): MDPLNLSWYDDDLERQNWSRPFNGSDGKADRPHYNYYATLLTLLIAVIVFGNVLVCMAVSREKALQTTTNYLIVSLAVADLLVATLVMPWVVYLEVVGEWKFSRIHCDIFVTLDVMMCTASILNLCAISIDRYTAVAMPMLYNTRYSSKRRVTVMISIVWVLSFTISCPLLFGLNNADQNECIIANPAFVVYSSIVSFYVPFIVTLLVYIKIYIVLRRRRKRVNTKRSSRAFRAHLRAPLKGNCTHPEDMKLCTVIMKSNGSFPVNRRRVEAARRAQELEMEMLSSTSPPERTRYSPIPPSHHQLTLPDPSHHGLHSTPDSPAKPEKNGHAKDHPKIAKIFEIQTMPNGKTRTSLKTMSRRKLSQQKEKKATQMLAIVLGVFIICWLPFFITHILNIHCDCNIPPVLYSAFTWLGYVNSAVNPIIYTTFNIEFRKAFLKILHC
#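 DiscoveRx PathHunter D2 beta-arrestin cells (2,100/well) attached overnight, then compound-stimulated 90 min at 37 C in HBSS/10 mM HEPES/0.1% Tween-20 buffer; beta-galactosidase complementation read by luminescence after 1 h at ambient temperature. Dopamine 57 uM final (EC100) as control.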
# gsp ag: gsp mutant agonism | gsp mutant cells, cAMP HTRF, 30 min; control for the full effect not named in the record | Potency, µM (top dose mostly 76.9 µM), for the others: at the highest dose activation (cAMP increase), most hits filed as activators | 0.13% of 340,000 active | AID 624287; active = well fitted activation curve with a large enough effect; inconclusive = small, poorly fitted or top-dose-only effect, or another doubt; inactive = no such curve, though single readings can be large or run the other way; cell line not stated here;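 note: phosphodiesterase inhibitor Ro 20-1724 added with compounds to block cAMP breakdown; potency is the fitted concentration of half-maximal effect; nearly all actives have a fitted effect of over 60% in size; about a fifth of the inactives were tested at one dose only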
#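 Cells stably selected in G418 were plated at 2000/well, grown 16-24 hr, then given compounds in DMSO with the PDE inhibitor […] (300 uM solution added) for 30 min at 37C; cAMP was read by HTRF.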
# ClpP mod: qHTS Assay for Activators of ClpP; ATP-dependent Clp protease proteolytic subunit (Bacillus subtilis (strain 168)), P80244; purified B. subtilis ClpP, FRET peptide cleavage, 20 min; Potency, µM (doses to about 57.5 µM), without a hit: top-dose activity change, negative = active; 1.9% of 340,000 active; AID 651965, 2013; active = well fitted falling curve with a large enough effect; inconclusive = small, poorly fitted or top-dose-only effect; inactive = no such curve, though single readings can be large or run the other way; note: potency is the fitted concentration of half-maximal effect; the source files actives as falling curves though it sought activators and does not explain the sign; nearly all actives have a fitted effect of over 65% in size; many hits overshoot -100%
# Target sequence (P80244 whole entry, looked up): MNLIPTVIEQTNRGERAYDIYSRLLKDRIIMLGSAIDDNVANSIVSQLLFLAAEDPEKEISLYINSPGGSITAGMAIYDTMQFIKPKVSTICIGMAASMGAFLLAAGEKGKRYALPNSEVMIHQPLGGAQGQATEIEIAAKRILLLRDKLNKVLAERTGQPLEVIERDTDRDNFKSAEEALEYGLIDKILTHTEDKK
#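 Purified B. subtilis ClpP, 10 microg/mL final in Tris/HCl pH8 with KCl, BSA, glycerol and Tween-20, cleaved an Abz/nitrotyrosine-quenched decapeptide. Fluorescence (ex 320, em 430) was read at 0 and 20 min at room temperature. Delta was normalized to 5.8 microM ADEP and DMSO/no-enzyme controls.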
# Menin-MLL FL inh: displaces fluorescein MLL peptide from human menin; 290,000 tested, under 10 active; FP activity change, % at 61.4 µM; Fluorescence polarization, fluorescein-MLL peptide displacement from menin; inconclusive = falling polarisation curve, or a change in total fluorescence; inactive = total fluorescence flat and polarisation flat or rising; no compound was filed as active; the % refers to the polarisation; negative = inhibition;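 note: % of control where 0% means no effect; inhibitors lower the polarisation; unlabelled MLL peptide was the positive control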
# Sfp inh: blocks B. subtilis Sfp PPTase activity | Q9F4F7 | Biochemical Sfp PPTase activity, qHTS | Potency, µM, for inactives: max response, negative = inhibition, usual class: inhibitors | 3.5% of 310,000 active; active = well fitted inhibition curve with a large enough effect; inconclusive = small, poorly fitted or top-dose-only effect, or another doubt; inactive = no such curve, though single readings can be large or run the other way;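 note: the enzyme is Sfp with the accession as filed and its product quenches rhodamine fluorescence; potency is the fitted concentration of half-maximal effect; 0% = enzyme reaction without inhibitor and -100% = no enzyme wells; top concentration of the series not given in the record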
#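 Sfp 15 nM + cpd, 15 min RT; start w/ rhodamine-CoA 5 uM, BHQ-2-YbbR 12.5 uM (final); 50 mM Hepes pH 7.6, 10 mM MgCl2, 0.01% NP-40, 0.01% BSA; read 525/598 nm at 0 and 30 min.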
# gsp antagonist: antagonists of gsp mutant (McCune-Albright syndrome); gsp-mutant cells, cAMP HTRF, 30 min; control for the full effect not named in the record; Potency, µM (doses to about 76.9 µM), for the others: at the top dose activity change, negative = inhibition, hits mostly inhibitors; 0.4% of 340,000 active; active = falling curve of any shape with a large fitted effect; inconclusive = falling curve, mostly with a smaller effect; inactive = flat or rising curve; cell line not stated here;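 note: intracellular cAMP measured with PDE inhibitor Ro 20-1724 present during compound exposure; potency is the fitted concentration of half-maximal effect; % is set by controls: 0 for no effect and ±100 for the full control effect; nearly all actives have a fitted effect of over 65% in size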
#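 HTRF cAMP measurement after 30 min RT detection following 30 min, 37C compound treatment alongside […] (added as 300 uM solution) in G418-selected cells seeded at 2000/well and grown 16–24 h.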
# * hit, by the source's call; ? = inconclusive; . = no result given; [ ] = dose if it differs, or a comment.
mol	PINK1 modulator	D2 ag	gsp ag	ClpP mod	Menin-MLL FL inh	Sfp inh	gsp antagonist
Cc1cc(-c2cc(-c3ccccc3)on2)nc(NCC2CC2)n1	3.6%	-1.4	-19.8%	?	-0.7	-4.3%	-5.5%
Cc1ccc(O)c(NC(=O)c2cc(-c3ccco3)on2)c1	3.1%	-2.1	17.7%[15.4 µM]	.	11.0	-2.0%	4.8%
CC(=O)N1CCN(C(=S)c2cccc([N+](=O)[O-])c2)CC1	-2.3%	-1.9	?	-9.6%	1.1	-14.6%	-2.4%
O=C(Nc1cccc(-c2csc(Nc3ccccc3)n2)c1)c1cc([N+](=O)[O-])cc(C(F)(F)F)c1	3.7%	8.0	-75.7%[inhibitor]	1.0%	-2.1	7.1%	-9.8%
COc1cc(/C=N\NC(=O)c2ccc(C)nc2)ccc1OC(=O)c1cccc(F)c1	0.3%	0.6	-33.0%[inhibitor]	.	-0.2	20.8%	0.1%
Cc1cc2cc(C#N)c(NCCNC(=S)NCCCN3CCOCC3)nc2cc1C	1.5%	-0.3	1.1%[15.4 µM]	.	-1.4	18.2%	-9.3%
COc1c2c(nc3occc13)C(CC=C(C)C)(OC)C(O)CC2 (stereo not drawn)	-1.2%	-3.5	13.4%	-2.9%	2.1	-3.0%	2.6%
COc1cc(C(Nc2ccc(S(=O)(=O)NCC3CCCO3)cc2)C(=O)NC(C)(C)C)cc(OC)c1OC (stereo not drawn)	-0.7%	-3.0	3.4%[15.4 µM]	.	2.1	17.5%	-5.0%
S=C(c1cn(Cc2ccccc2)c2ccccc12)N1CCOCC1	0.3%	-4.2	-18.6%[15.4 µM]	.	2.5	14.0%	-6.7%
Cc1nn(C(=O)c2ccco2)c(C)c1CN1C(=O)c2ccccc2C1=O	1.0%[38.3 µM]	-1.7	-5.7%	-2.0%	-0.5	-17.9%	3.8%
O=S(=O)(NC1CC1)c1ccc(S(=O)(=O)N2CCC3(CC2)OCCO3)cc1	0.2%	-2.0	23.5%[15.4 µM]	-0.2%	0.1	7.0%	-21.5%
CC[C@@H](C)[C@H](NC(=O)OCc1ccccc1)c1nnc([C@@H](NC(=O)OCc2ccccc2)[C@@H](C)CC)o1	4.6%	0.5	.	0.5%	0.7	9.8%	8.1%
CCOc1ccc(CN2CCC(n3nccc3NC(=O)CCCc3ccccc3)CC2)cc1	1.5%	-5.1	13.1%	-3.5%	.	-5.0%	6.6%
CCC1CCCCN1CCCNC(=O)C1CCN(S(=O)(=O)N2CCC3(CC2)OCCO3)CC1 (stereo not drawn)	-0.8%	0.7	13.5%	1.1%	5.8	17.2%	2.9%
C=CCNc1nc(Cl)nc(Nc2cc(Cl)ccc2OC)n1	0.3%	1.7	-4.0%[15.4 µM]	-0.8%	-5.7	-1.1%	-0.4%
Cc1ccc(C(=O)CCNc2ccc(F)c(Cl)c2)o1	-2.3%	-0.6	-17.7%	2.8%	2.2	9.3%	-9.9%
CCOc1cc2[nH]c(=S)n(Cc3ccc(C(=O)NCC(OC)OC)cc3)c(=O)c2cc1OCC	.	0.2	0.0%	-2.9%	2.8	5.9%	17.1%
CCN(C(=O)CSc1nc2ccc([N+](=O)[O-])cc2s1)C1CCS(=O)(=O)C1 (stereo not drawn)	0.2%	5.7	-2.2%[15.4 µM]	-2.7%	4.5	1.5%	-16.9%
O=C(NCc1ccccc1)C1CCC(=O)N(CCCN2CCCC2=O)C1 (stereo not drawn)	4.8%	-5.2	?	-0.3%	-4.3	7.2%	-0.4%
CC(C)Oc1cccc(C(=O)Nc2ccc(N3CCN(C)CC3)cc2)c1	-1.2%	-4.1	1.2%	0.6%	-1.2	3.5%	1.0%
CC(C)N(Cc1nc(-c2ccccc2)no1)C(=O)CN(C)S(=O)(=O)c1ccc(Br)cc1	22.4%[38.3 µM]	-3.6	11.1%	-0.6%	1.7	16.8%	0.7%
CS(=O)(=O)N1CCN(c2ccc(NC(=O)COc3ccccc3[N+](=O)[O-])cc2)CC1	?	1.1	?	1.7%	.	-0.7%	2.2%
O=C(NC1CCCCC1)c1cc(S(=O)(=O)N2CCOCC2)c(Cl)cc1Cl	-0.5%	-4.6	2.2%	.	-3.7	16.9%	9.1%
Cc1c(C(=O)N2CCCCC2)c(S(=O)(=O)N2CCN(c3ccc(Cl)cc3)CC2)c(C)n1C	-1.0%	-11.0	-23.8%	0.5%	0.3	-1.0%	-5.3%
COc1cc(SC)ccc1C(=O)N(C)CC(=O)Nc1cccc2ccccc12	-0.8%	-6.9	13.3%[15.4 µM]	0.6%	.	.	-1.2%
CS(=O)(=O)c1ccc(Nc2nc(C(N)Cc3ccc(F)cc3)cs2)cc1 (stereo not drawn)	0.7%	7.8	.	-14.4%	.	.	.
Cc1nc2cc3nc(C(F)(F)F)[nH]c3cc2[nH]1	0.0%	4.3	-30.5%[inhibitor]	?	1.7	13.3%	13.0%
CCCCn1nnnc1C(c1cccs1)N1CCN(C/C=C/c2ccccc2)CC1 (stereo not drawn)	3.1%	-4.3	.	0.2%	.	.	.
Cn1cnc(C(F)(F)F)c1-c1ccc([N+](=O)[O-])cc1	2.6%	-1.2	-14.6%	1.3%	8.5	3.4%	1.4%
Cc1ccnc(NC(=O)/C=C/c2cccs2)c1	9.3%	-2.8	5.7%[15.4 µM]	1.0%	1.3	-8.6%	-7.4%
COc1ccc(-c2sc3ccccc3c2-c2ccc(OCCN3CCCCC3)cc2)cc1	12.2%	-1.0	.	28.2µM*	.	.	12.2%
N#Cc1ccc(NC(=O)CN2C(=O)NC3(CCCC3)C2=O)cc1	-1.5%	-4.1	29.8%[15.4 µM]	.	-1.4	13.3%	1.6%
CCN(CC(=O)Nc1ccc(NC(C)=O)cc1)C(=O)/C=C/c1ccccc1	0.7%	-0.9	-44.5%[inhibitor]	-1.5%	.	.	14.0%
CCC(C)NC(=O)CSc1ncccc1C(=O)O (stereo not drawn)	.	-0.1	-8.7%	-1.2%	2.2	2.3%	-0.5%
C[N+](C)(C)C[C@H](O)CC(=O)O	1.7%	-7.0	.	0.0%	.	.	-5.0%
CCC(=O)c1cc(F)ccc1OCC(=O)N1CCN(c2ccc(F)cc2)CC1	3.0%	-18.7	5.9%	-2.9%	-0.6	9.2%	-18.8%
Cc1ccccc1CN1C[C@@H]2C[C@@H](c3cn(C)nc3-c3ccccc3)N3CCC[C@@]23C1=O	2.7%	-5.7	0.1%	.	10.9	3.16µM*	-19.7%
CCOC(=O)c1c(S(=O)(=O)N2CCC(C)CC2)c(C)n(C)c1C	0.1%	-3.9	17.4%	-1.3%	-0.4	21.3%	6.1%
CC(C)(C)NC(=O)C(c1ccccn1)N(C(=O)C1CSC(=O)C1)c1ccccc1F (stereo not drawn)	0.7%	-2.1	1.4%	-2.2%	-0.3	8.4%	8.8%
Cc1ccc(C(=O)N2CCCCC2)cc1S(=O)(=O)N1CCOCC1	-3.1%	-5.7	?	2.4%	0.0	0.1%	-7.3%
N#Cc1ccccc1OCC(=O)Nc1cccc(S(=O)(=O)N2CCCCCC2)c1	7.5%	2.8	35.0%	0.5%	.	.	-21.1%
CC(=O)OC1(C)C=Cc2ccccc2C1=NS(=O)(=O)c1ccccc1 (stereo not drawn)	2.0%	7.6	23.2%	-1.3%	.	.	.
Cc1ccc(CCC(=O)Nc2ccc(Cl)cc2Cl)o1	6.9%	0.1	-51.0%[inhibitor]	0.9%	.	.	.
OCCNc1ncnc2c1cnn2Cc1ccccc1	-0.8%	4.4	-40.7%[inhibitor]	-2.3%	-6.4	13.6%	-8.4%
O=C(NCc1ccco1)c1cccn2c(=O)c3sccc3nc12	.	0.2	5.6%	-1.1%	.	.	6.3%
COCc1nnc(NC(=O)CC(C)c2ccccc2)s1 (stereo not drawn)	1.9%	0.0	-39.4%[inhibitor]	-0.4%	3.3	10.6%	-6.3%
Cc1csc(NC(=O)c2cccnc2)n1	0.8%	-0.9	0.3%	-2.4%	-2.0	31.4%[activator]	3.6%
O=C(Cc1c[nH]c2ccccc12)N1CCN(S(=O)(=O)c2ccc(F)cc2)CC1	0.9%	1.0	-21.3%	-2.2%	.	.	.
COc1ccccc1CNC(=O)COC(=O)COc1ccccc1F	0.7%	-1.0	-7.1%	0.8%	.	.	12.4%
Cc1cnn(C(=O)c2cc(-c3ccccc3)nc3ccccc23)c1	-3.6%[38.3 µM]	1.1	19.7%	17.6%	0.1	-4.6%	-12.0%
O=C(Nc1cccn(Cc2ccccc2)c1=O)NC1CCCCC1	3.0%	-3.4	-23.5%	20µM*	3.1	4.2%	0.9%
CCNC(=S)Nc1ccc2c(c1)oc1ccccc12	-0.6%	-0.9	-22.7%	-1.3%	.	.	0.1%
COc1cccc(C(=O)Nc2ccc(NC(C)=O)cn2)c1	-0.2%	-4.5	13.8%	0.2%	-2.9	10.9%	2.8%
O=C(c1ccco1)N1CCN(c2ccc(Cl)c(Cl)c2)CC1	?	2.8	-5.9%	0.4%	.	.	-20.5%
O=C1NCCN1CCNS(=O)(=O)c1ccc(F)c(Cl)c1	-1.1%	-3.0	-3.4%	-1.2%	2.6	6.2%	2.8%
C=C(C)C(=O)N1CC2(CC(c3cccc(NC(=O)CCCCC)c3)=NO2)C[C@H]1C(N)=O (stereo partly drawn)	2.0%	-3.5	.	-7.3%	4.3	0.5%	-9.4%
CCC1=[N+](CC(=O)c2ccc(Br)cc2)CCn2c(C)ccc21	3.2%	-6.0	8.2%	-18.1%	?	-17.2%	3.0%
O=C(Cc1ccc([N+](=O)[O-])cc1)N/N=C/c1cccnc1	0.4%	-1.7	3.3%	2.6%	.	.	-1.9%
Cc1ccc(CNC(=O)C2CCCN(c3nc(C)cc(C)n3)C2)cc1 (stereo not drawn)	-0.6%	2.7	-0.2%	-5.9%	-2.5	11.9%	5.1%
CCOC(=O)/C=C1/SCC(=O)N1CCOc1cccc(Br)c1	-1.1%	-1.4	?	.	.	.	-27.5%

# Screening data as filed in PubChem BioAssay.
